# Compound activity: PubChem, several laboratories
# CBX7 AlphaScr = CBX7 inhibition, primary AlphaScreen | O95931 | AlphaScreen His6-CBX7 / biotin-H3K27me3 peptide binding; stronger effect = lower value | normalised signal (fraction of DMSO) (no concentration beside the values) | 66,000 tested, 1.1% active | AID 1224903; in the data active means normalised signal below about 0.5;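 further: 100 nL library stock added to about 20 µL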
# Target sequence (O95931 whole entry, looked up): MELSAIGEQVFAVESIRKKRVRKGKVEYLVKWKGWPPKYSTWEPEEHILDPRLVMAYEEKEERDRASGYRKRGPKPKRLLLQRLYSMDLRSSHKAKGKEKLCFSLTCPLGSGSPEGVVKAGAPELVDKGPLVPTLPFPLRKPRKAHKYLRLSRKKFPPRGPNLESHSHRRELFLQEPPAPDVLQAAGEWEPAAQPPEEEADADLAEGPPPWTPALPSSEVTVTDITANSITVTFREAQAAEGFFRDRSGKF
# CBX7 AlphaScr z-score = recorded beside CBX7 AlphaScr, whose call it bears; z-score; measured here: z-score of CBX7 signal; some inactives read as strong as hits; reference of the scale not given here;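 same signal on another scale; lower means less binding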
# * hit, by the source's call; & = joins results of further samples.
molecule	CBX7 AlphaScr	CBX7 AlphaScr z-score
Cc1ccc2c(c1)NC(=O)C(CC(=O)NCCCN1CC(C)CC(C)C1)O2 (configuration not stated)	1.1	2.2
CCCSc1oc(-c2ccc(C)cc2)nc1S(=O)(=O)c1ccc(C)cc1	1	0.012
COc1ccc(CCNC(=O)c2c(-c3ccccc3Cl)noc2C)cc1	1.4	1.6
Cc1ccc(C(=O)N2CC(C)CC(C)C2)cc1NC1=NC2CS(=O)(=O)CC2S1 (configuration not stated)	1.1	2.3
COc1ccc(-c2nc(CS(=O)(=O)CC(=O)NCCc3ccccc3)c(C)o2)cc1	0.87	-2.2
CCN1C(=O)c2ccccc2S(=O)c2ccc(C(=O)NCCCOC(C)C)cc21 (configuration not stated)	0.96	-0.92
CCOC(=O)N1CCC(NC(=O)CCc2nc(-c3ccccc3F)no2)CC1	1.1	3.6
Cc1ccc2c(c1)NC(=O)C(CC(=O)NCCc1ccc(Cl)cc1)O2 (configuration not stated)	1	1.5
CCOc1cccc(CNc2ccc3[nH]c(=O)[nH]c3c2)c1OCc1ccc(Cl)cc1	0.44*	-5.9*
COc1cccc(CC(=O)Nc2ccc3nc(N4CCOCC4)cc(C)c3c2)c1	1	0.6
COc1ccc(C2C(Oc3ccccc3C)C(=O)N2c2ccc(C)c(C)c2)cc1OC (configuration not stated)	0.97	-0.65
O=C(NC1CCCCCC1)c1ccc2c(c1)NC(=O)C1CCCN21 (configuration not stated)	1	0.032
CCCCN(CCCNC(=O)c1cc(-c2ccncc2)nc2ccccc12)Cc1ccccc1	0.96	-2.1
COc1ccccc1CNC(=O)c1cc(=O)[nH]c2ccc(S(=O)(=O)N3CCCCCC3)cc12	1	0.4
CCc1ccccc1Nc1cc(C(=O)NCCCOC)c2ccccc2n1	1.2	2.6
CCOc1ccc(-n2c(Cc3cc(=O)[nH]c(=O)[nH]3)nnc2SCC(=O)N2CCOCC2)cc1	0.78	-3.3
CCOc1ccc(CN(C)CCc2ccccn2)cc1	0.47*	-4.1*
COc1ccc(OC)c(C2=NOC(C(=O)N3CCN(c4ccccc4)CC3)C2)c1 (configuration not stated)	1	0.46
COc1ccc(-c2nc(SCC(=O)Nc3ccccc3)c(-c3ccc(F)cc3)[nH]2)cc1OC	0.79	-9.9
Cc1ccc(NC(=O)c2cnn(-c3ccc(C)c(C)c3)c2C2CCNCC2)c(Cl)c1	0.89	-2.1
Cc1ccc(OCC(=O)Nc2ncc(Cc3cccc(C)c3)s2)cc1	1.1	0.12
COc1ccc2cc(CCNC(=O)c3cccc(Br)c3)c(=O)[nH]c2c1	1	-0.094
Cc1ccc(Cn2cc(C(=O)c3ccccc3)c(=O)c3cc(F)cc(F)c32)cc1	0.86	-0.48
COc1ccccc1NC(=O)CSc1oc(-c2ccc(C)cc2)nc1S(=O)(=O)c1ccccc1	0.92	-2.9
COc1ccc(CCNC(=O)CCNC(=O)Cn2ccc3ccccc3c2=O)cc1OC	0.99	-0.24
COc1ccc2oc(=O)c(-c3nc4ccc(Cl)cc4[nH]3)cc2c1	1.1	1.1
Cc1cccc(C)c1NC(=O)C1CCCN1S(=O)(=O)c1ccc2c(c1)n(C)c(=O)c(=O)n2C (configuration not stated)	1.2	2.1
CCCCCCC(C)n1c(-c2nonc2N)nc2ccccc21 (configuration not stated)	1.1	2.5
O=C(c1cccc(S(=O)(=O)N2CCCCCC2)c1)N1CCc2ccccc21	1	1.3
CCCCOc1cccc(C(=O)N(Cc2ccc(OC)c(OC)c2)C2CCS(=O)(=O)C2)c1 (configuration not stated)	1.1	0.055
COc1ccc(Oc2nnc(-c3ccc(OC)cc3)c3ccccc23)cc1	0.98	-0.38
CCOC(=O)C1CCCN(c2c(N3CCN(c4ccccc4F)CC3)c(=O)c2=O)C1 (configuration not stated)	1	0.37
CCCCOc1ccc(NC(=O)C(=O)NCCCn2ccnc2)cc1	1	-0.19
COc1cc(OC)cc(-c2nc3nc(C)c(CCC(=O)NCCN4CCOCC4)c(C)n3n2)c1	1.1	0.3
CCC1Oc2ccc(C)cc2N(CC(=O)NC(C)C)C1=O (configuration not stated)	1.1	2.3
COc1ccc(NC(=O)CC2C(=O)N(c3ccccc3)C(=O)N2Cc2ccc(OC)c(OC)c2)cc1 (configuration not stated)	0.98	-0.083
CCOC(=O)c1c(C2COc3ccccc3O2)csc1NC(=O)c1ccc(Cl)cc1 (configuration not stated)	1.1	5.4
COc1ccccc1NC(=O)N1CCN(c2ccc3nnc(-c4ccccc4)n3n2)CC1	0.88	-1.7
COCCNC(=O)c1nn(-c2ccc(OC)cc2)c(=O)c2ccccc12	1.1	0.54
COc1cccc(C(=O)Nc2ccc(-c3nc4ncccc4o3)cc2)c1	1	0.17
CCOc1ccc(NC(=O)Nc2cccs2)cc1	0.98	-1
COc1ccccc1NC(=O)CCc1c(C)nc2ncnn2c1C	1.1	2
Cc1ccccc1Cn1c(=O)n(CCCC(=O)NCc2ccc3c(c2)OCO3)c(=O)c2sccc21	1	0.68
Cn1c(=O)[nH]c(=O)c2c1nc(CN1CCOCC1)n2Cc1ccccc1Cl	1.1	2.4
O=C(CSc1nnc(-c2ccc(Cl)cc2Cl)o1)N1CCCc2ccccc21	1	1.7
COC(=O)c1ccccc1NC(=O)CCc1nc(-c2ccccc2F)no1	1.4	6
CCC1=Nc2cc(C(=O)NCCCN3CCOCC3)ccc2Sc2ccc(Cl)cc21	0.97	-0.48
O=C(Nc1ccccc1Cl)c1ccccc1Nc1nc(-c2ccccc2)cs1	0.82	-0.21
COc1ccc(-c2nc(-c3ccc(Cl)cc3)no2)cc1OC	1	0.14
CCOc1ccc2nc(SCC(=O)Nc3ccc(OC(F)(F)F)cc3)[nH]c2c1	1.2	1.4
O=C(CSc1nnc(-c2ccc(Cl)s2)o1)N1CCOCC1	1.2	2.5
Cc1ccc(-c2csc(NC(=O)c3ccc(S(=O)(=O)N4CCOCC4)cc3)n2)c(C)c1	1.1	1.5
COc1ccc(Cn2c(=O)[nH]c3cc(C(=O)NCc4ccc(Cl)cc4)ccc3c2=O)cc1	0.98	-0.51
O=C(Cn1c(SCc2ccccc2F)nc2ccncc21)N1CCCCCC1	0.98	-0.77
COc1cccc(CNC(=O)CN(c2ccc(C(C)C)cc2)S(=O)(=O)c2c(C)nn(C)c2C)c1	0.91	-1.7
O=C(c1csc2c1CCCC2)N1CCN(c2ncccn2)CC1	1	1.4
Cc1cc(C)cc(NC(=O)CN(c2ccc(C(C)C)cc2)S(=O)(=O)c2c(C)nn(C)c2C)c1	0.95	-1
CC(C)(C)C(=O)Nc1nnc(COc2ccc(C(C)(C)C)cc2)s1	1	0.65
CC(C)(CC(=O)NCCN1CCN(c2ccccc2F)CC1)CC1=NS(=O)(=O)c2ccccc2N1	1	0.55
COc1cc2c(cc1OC)C(C(=O)NCCCN1CCC(C)CC1)C1c3ccccc3CCN1C2=O (configuration not stated)	1.1	2.4

# Additional compounds follow.
molecule	CBX7 AlphaScr	CBX7 AlphaScr z-score
COc1ccccc1Nc1ncc(C(=O)NCCCN2CCC(C)CC2)c2ccccc12	1.2	1.7
CN(CCc1ccccn1)C(=O)c1cc2n(n1)C(C(F)(F)F)CC(c1ccc(Cl)c(Cl)c1)N2 (configuration not stated)	1.1	1.1
Cc1cc(N2CCC(C)CC2)nc2ccc(NC(=O)CCC(=O)NC3CCCCC3)cc12	1	1.7
O=C(Nc1cccc(C(F)(F)F)c1)c1cccnc1Nc1ccc(Cl)cc1	1	0.96
Cc1nc2cc(-c3cccc(F)c3)nn2c(C)c1CCC(=O)NCc1cccnc1	1	0.43
Fc1ccccc1-c1nc(NCc2cccs2)c2ccccc2n1	1	1.2
O=C(CN1C2=NCCCN2c2ccccc21)c1ccc(Cl)cc1	0.95	-0.89
Clc1ccc2nc(-c3ccsc3)c(NC3CCCC3)n2c1	1	0.045
Oc1ccc(Cl)cc1-c1cc(C(F)(F)C(F)F)nc(-c2ccccc2)n1	0.95	-0.52
Cc1cc2ncn(CC(O)COc3c(C)cccc3C)c2cc1C (configuration not stated)	0.77	-6.6
Cc1cccc2nc(-c3cccc(F)c3)c(-c3cccc(F)c3)nc12	1.5	3.3
CCCCN(CCCC)S(=O)(=O)c1ccc(C(=O)Nc2nc(-c3ccccn3)cs2)cc1	0.93	-1.6
COc1ccc(-c2c(C)nn3c(N4CCc5ccccc54)cc(C)nc23)cc1OC	1	0.011
COc1ccc(Nc2cc(C(=O)NC3CCCC(C)C3C)c3ccccc3n2)cc1OC (configuration not stated)	0.68	-1.4
Cc1nn(-c2ccccc2)c2c1C(=O)CC(C)(C)C2	1.2	1.5

# Reprinted from the results shown (6 entries):
molecule	CBX7 AlphaScr	CBX7 AlphaScr z-score
Cc1cc2ncn(CC(O)COc3c(C)cccc3C)c2cc1C (configuration not stated)	0.77	-6.6
Cc1cccc2nc(-c3cccc(F)c3)c(-c3cccc(F)c3)nc12	1.5	3.3
CCCCN(CCCC)S(=O)(=O)c1ccc(C(=O)Nc2nc(-c3ccccn3)cs2)cc1	0.93	-1.6
COc1ccc(-c2c(C)nn3c(N4CCc5ccccc54)cc(C)nc23)cc1OC	1	0.011
COc1ccc(Nc2cc(C(=O)NC3CCCC(C)C3C)c3ccccc3n2)cc1OC (configuration not stated)	0.68	-1.4
Cc1nn(-c2ccccc2)c2c1C(=O)CC(C)(C)C2	1.2	1.5

# Some of these compounds in order of the CBX7 AlphaScr z-score value, descending.
structure,CBX7 AlphaScr z-score
Cc1nn(-c2ccccc2)c2c1C(=O)CC(C)(C)C2,1.5
Clc1ccc2nc(-c3ccsc3)c(NC3CCCC3)n2c1,0.045
O=C(CN1C2=NCCCN2c2ccccc21)c1ccc(Cl)cc1,-0.89

# Later entries
molecule	CBX7 AlphaScr	CBX7 AlphaScr z-score
CCOc1ccc(CCNC(=O)C2CC(=O)N(C3CCCC3)C2)cc1OCC (configuration not stated)	1	0.15
Cc1ccc(-c2csc(NC(=O)c3ccc(S(=O)(=O)N(C)C)cc3)n2)cc1	1	0.52
COc1ccc(Cn2c(CCC(=O)NCc3ccccc3)nc3cccnc32)cc1	0.99	-0.24
Cc1csc(NC(=O)CCc2c(C)nc3c(-c4ccc(F)cc4)c(C)nn3c2C)n1	1	1.1
Cc1nc2ccccn2c1C(=O)NC(C)c1ccccc1 (configuration not stated)	1.1&1.1	2.2&0.78
Cc1oc(-c2ccc(Cl)cc2)nc1CN1CCC(C(=O)NC(C)c2ccccc2)CC1 (configuration not stated)	1.1	0.96
O=C(NC1CCCc2ccccc21)c1ccc(CNc2c(N3CCOCC3)c(=O)c2=O)cc1 (configuration not stated)	1.2	1.4
Cc1nn(Cc2ccccc2Cl)c(C)c1NC(=O)c1noc2c1CCCCC2	0.95	-1
OC(CN1CCCC1)Cn1c2ccc(Cl)cc2c2cc(Cl)ccc21 (configuration not stated)	1.1	1.1
Cc1ccc2nc(NC(=O)c3c(-c4ccccc4Cl)noc3C)sc2c1	0.84	-2.7
O=C(Cn1ncc2ccsc2c1=O)N1CCCCCC1	0.99	-0.27
NS(=O)(=O)c1ccc(CCNC(=O)c2cnc3sccn3c2=O)cc1	0.95	-1.2
CCC1C(c2ccccc2)N(C)C(c2ccccc2)CC1(O)c1ccccc1 (configuration not stated)	0.98	-0.65
CCCC(=O)N1CCN(c2nc(C(C)C)c3c(c2C#N)CC(C)(C)OC3)CC1	0.97	-0.91
COCCCNC(=O)c1c[nH]c2ccc(S(=O)(=O)Nc3cccc(Cl)c3C)cc2c1=O	0.96	-0.51
CCc1ccc(-c2cn(-c3ccc(Cl)cc3)c(=O)[nH]2)cc1	0.94	-1.8
Cc1oc(-c2cccc(Cl)c2)nc1CS(=O)(=O)CC(=O)NC1CCCC(C)C1C (configuration not stated)	1	0.98
CC1=C(C(=O)Nc2cc(C)ccn2)C(c2cccc(Br)c2)C2=C(CCCC2=O)N1 (configuration not stated)	1.3	0.52
O=C(O)c1c[nH]n2c(=O)cc(C3CCNCC3)nc12	1	0.12
CCOc1ccc2nc(NC(=O)CN(C)S(=O)(=O)c3cnc[nH]3)sc2c1	0.99	-0.16
Cc1ccccc1-c1nc(C(=O)NCCc2ccccc2)c(C)o1	0.93	-0.14
O=C(Nc1ccc(-c2nc3ccccc3o2)c(O)c1)c1ccc(OCc2ccccc2)cc1	1	1.2
COc1ccccc1NC(=O)c1sc2ncn(CC(=O)N3CCCCC3C)c(=O)c2c1C (configuration not stated)	0.96	-1.2
O=C(NC1CCCC1)C(c1ccc(Cl)cc1)N1CCC2(CC1)OCCO2 (configuration not stated)	1.1	2.3
COc1cccc(-c2nn(C)c3sc(C(=O)N4CCCC(C)C4)cc23)c1 (configuration not stated)	0.89	-1.5
CCC(CC)C(=O)NCCc1cc2cc(C)c(C)cc2[nH]c1=O	1.1	0.8
Cc1oc(-c2ccccc2Cl)nc1CS(=O)(=O)CC(=O)NCCCOC(C)C	1	-0.21
COc1ccc(OC)c(S(=O)(=O)NCCc2c(C)[nH]c3c(C)cccc23)c1	1	0.71
CCOc1ccc(C2CC(=O)NC3=C2C(=O)CCC3)cc1Cl (configuration not stated)	0.96	-0.52
COc1ccc(Cl)cc1C(=O)Nc1cc(-c2nc3ncccc3o2)ccc1Cl	0.98	-0.71
Cc1ccc(S(=O)(=O)C2(C(=O)Nc3ccc(C(F)(F)F)cc3)CC2)cc1	1.1	2.9
C=C(C)c1cccc(C(C)(C)NC(=O)N2CCC(C)CC2)c1	1	0.33
O=C1CN(C(=O)c2cccc(C(F)(F)F)c2)C(c2ccc(F)cc2)c2cc(Cl)ccc2N1 (configuration not stated)	1.1	1.1

# The list is partial; the hit share may differ from the screen's.
